Beta cell apopt – blocks beta cell apoptosis. AID 435005. protection from apoptosis, % (no concentration beside the values). INS-1E cytokine-induced death, ATP luminescence, 48 h; percent of positive-control rescue, neutral wells zero. 300,000 tested, 0.8% active;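 active = all replicates at 75% or more, or half of them and the mean; inconclusive = half reach 75% but not the mean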;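 note: 0% = cytokine-treated negative control wells and 100% = positive control rescue; higher means more ATP so stronger rescue from cytokine killing; wells of about 40 µL received 100 nL stock; the first replicate is given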
RanGTP-Impb inh – disruptors of Ran-importin-beta complex formation – biochemical, FRET, CFP-Ran, YFP-importin-beta, homogeneous, primary screen. cell-free CFP-Ran/YFP-importin-beta FRET ratio. AID 2216. inhibition, % (no concentration beside the values). 300,000 tested, 1.1% active;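 active = most replicates above 15%; inconclusive = exactly half above 15%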;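 note: 0% = DMSO wells and 100% = Ran loaded with GDP instead of GTP; wells of about 40 µL received 100 nL stock; the first replicate is given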
Calb FLC – affects C. albicans growth with fluconazole; C. albicans CaCi-2 (fluconazole-resistant clinical isolate) + fluconazole, Alamar Blue growth, 48 h; growth inhibition, % (test concentration not listed); 300,000 tested, 0.57% active;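 active = most replicates above 75%; inconclusive = exactly half above 75%; inactive = most below 75%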;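 note: all wells also contain fluconazole at 8 µg/ml as a sub-toxic cotreatment; 0% = median of DMSO wells and 100% = median of geldanamycin control wells; wells of about 8 µL received 7.5 nL stock; the first replicate is given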
AF4-AF9 inh – blocks AF4 peptide binding to human AF9; 350,000 tested, 0.47% active; P42568; AlphaScreen, biotin-AF4 peptide binding to FLAG-AF9; inhibition, % at 10 µM;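 active = every replicate reaching a set inhibition limit, whatever the replicate mean, cut at about 25% in these data; inconclusive = mean inhibition reaches that limit but some replicates miss it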;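 note: 0% = plate neutral control median and 100% = total signal loss; the record names both 10 and 1 µM as test concentration; the first replicate is given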
Target sequence (P42568 whole entry, looked up): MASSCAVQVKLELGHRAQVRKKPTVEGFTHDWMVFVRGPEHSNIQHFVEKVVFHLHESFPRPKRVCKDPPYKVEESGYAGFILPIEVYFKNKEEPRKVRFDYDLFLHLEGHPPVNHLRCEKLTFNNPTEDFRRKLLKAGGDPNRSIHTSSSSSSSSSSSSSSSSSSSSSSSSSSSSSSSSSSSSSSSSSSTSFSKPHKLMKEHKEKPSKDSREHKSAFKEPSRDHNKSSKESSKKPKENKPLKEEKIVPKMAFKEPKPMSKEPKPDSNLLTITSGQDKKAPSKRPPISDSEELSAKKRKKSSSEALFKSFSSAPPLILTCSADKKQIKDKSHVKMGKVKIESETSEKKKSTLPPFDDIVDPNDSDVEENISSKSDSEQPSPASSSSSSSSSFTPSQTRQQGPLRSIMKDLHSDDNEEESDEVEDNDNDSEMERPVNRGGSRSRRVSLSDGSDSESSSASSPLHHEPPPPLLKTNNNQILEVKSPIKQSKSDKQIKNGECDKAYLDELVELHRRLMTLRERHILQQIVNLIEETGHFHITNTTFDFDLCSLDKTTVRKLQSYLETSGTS
FGF22 binding – shifts melting point of recombinant human FGF22; calls only at 9.99 µM; recombinant FGF22 thermal shift, SYPRO orange fluorescence; percent of sucrose octasulfate shift, DMSO zero; Q9HCT0; 340,000 tested, 1.5% active; AID 651658;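 active = melting point raised past a set limit in the mean and every replicate; inconclusive = no clear call; three in four hits are not shown here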
Target sequence (Q9HCT0 whole entry, looked up): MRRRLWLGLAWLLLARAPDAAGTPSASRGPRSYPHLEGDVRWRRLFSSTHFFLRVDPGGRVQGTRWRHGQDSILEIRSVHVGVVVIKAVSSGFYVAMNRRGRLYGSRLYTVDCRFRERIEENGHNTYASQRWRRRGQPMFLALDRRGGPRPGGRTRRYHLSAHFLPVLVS
rRNA inh HTS – inhibitors of bacterial rRNA selective over humanized ribosomes; E. coli WT GFP vs humanized-ribosome RFP mutants, fluorescence, 24 h; stronger effect = lower value; DMSO median 0, no signal -100; GFP signal change (wild-type ribosome), % (concentration not given with the values); 350,000 tested, 1.6% active;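 active = significant combined selectivity score with lowered wild-type GFP, culture density cut under 30%, mutant RFP and density less affected; inactive = any of these conditions unmet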; note: one replicate is shown; some compounds called inactive have numbers as strong as hits
T cruzi repl – T. cruzi replication inhibition; T. cruzi beta-gal in NIH3T3, luminescence, 90 h; 300,000 tested, 1.4% active; inhibition, % (test concentration not listed);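 active = mean inhibition across valid replicates above about 55%, limit read from the data; inconclusive = mean below that limit but half or more replicates reach it; inactive = mean below it, under half of replicates reach it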;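 note: signal also drops with host cell toxicity which is not excluded here; 0% = plate median of DMSO wells and 100% = zero luminescence signal; higher percent means less beta-gal luminescence so fewer parasites; stock transfer was 50 nL into about 50 µL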
ALR inh – inhibitors of human sulfhydryl oxidase ALR. P55789. purified ALR, DTT oxidation, H2O2 HRP-luminol luminescence. inhibition, % (concentration not given with the values). 290,000 tested, 3.8% active. AID 485317;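 active = mean and each replicate at 75% or more; inconclusive = only one of the two met; inactive = neither met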;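 note: stock transfer was 7.5 nL into about 7.5 µL; 0% = neutral wells and 100% = wells with inactivated enzyme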
Target sequence (P55789 whole entry, looked up): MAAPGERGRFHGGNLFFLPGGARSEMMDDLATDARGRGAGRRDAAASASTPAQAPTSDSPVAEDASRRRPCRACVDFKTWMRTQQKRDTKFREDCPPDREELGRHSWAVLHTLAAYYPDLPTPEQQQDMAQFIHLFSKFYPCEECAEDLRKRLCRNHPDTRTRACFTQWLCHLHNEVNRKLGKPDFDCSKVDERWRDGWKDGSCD
rRNA inh HTS OD600 – also measured in rRNA inh HTS; calls as there; OD600 change, %; measured here: OD600 growth;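 optical density of the mix in the first replicate; 0 = DMSO median and -100 = no signal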
rRNA inh HTS RFP – further read-out of rRNA inh HTS, marked with its call; RFP signal change, %; measured here: RFP humanized mutant strains;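 first replicate; 0 = DMSO median and -100 = no signal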
An asterisk follows results filed as active; i = inactive; u = inconclusive; x = not tested or not shown; & = joins results of further samples. The list is partial; the hit share may differ from the screen's.

SMILES	Beta cell apopt	RanGTP-Impb inh	Calb FLC	AF4-AF9 inh	FGF22 binding	rRNA inh HTS	rRNA inh HTS OD600	rRNA inh HTS RFP	T cruzi repl	ALR inh
C=CCNC(=O)c1c(Cl)cnn1-c1ccc(C)cc1	4	-1.1	6	-2.6	x	12	10	1.4	-22	0
CC(C)(NC(=O)N1CCOCC1)c1cccc(C(C)(C)NC(=O)N2CCOCC2)c1	-5	0.7	0	x	x	x	x	x	2	3
COc1ccc(COC(=O)c2n[nH]c3ccccc23)cc1F	-5	-0.4	20	x	x	x	x	x	2	x
CCOC(=O)C1CCN(C(=O)CN(C)S(=O)(=O)c2ccc3c(c2)c(=O)n(C)c(=O)n3C)CC1	-1	0.0	-7	1.4	i	6	3	0.6	-4	1
COc1ccc2c(c1)N(C)/C(=C1/SC(=NCc3ccccc3)N(c3ccccc3)C1=O)S2	-2	-2.0	-14	x	x	x	x	x	8	-7
Cc1ccc(-c2noc(C3CCCN(C(=O)C4CCCCC4)C3)n2)o1 (stereo not drawn)	-3	-1.7	-18	x	x	x	x	x	x	4
Cc1ccc(S(=O)(=O)/N=C2/NC(=O)/C(=C\c3ccccc3)S2)cc1	-1	x	x	0.1	i	-36	-58	-10	x	99*
CC(C)c1ccc(N=Cc2c(O)c3ccccc3oc2=O)cc1	-8	3.3	4	-0.6	i	0	0	-1.0	-12	-1
N#CCCn1nc(-c2ccccc2)cc1Nc1ccccc1NC(=O)c1cccs1	-1	-4.1	-2	x	x	x	x	x	13	9
CCN(CC)CCN=CC1=C(O)CNC1=O	-2	-3.2	0	x	x	x	x	x	-4	-4
CC1(C)CC(=O)/C(=C(\O)CCCN2C(=O)c3ccccc3C2=O)C(=NCC(=O)O)C1	-3	1.4	-21	-1.2	x	20	30	7.8	-25	-9
COC(=O)CN(c1ccc(F)cc1)S(=O)(=O)c1ccccc1	-2	-4.1	0	x	x	x	x	x	-2	4
CC1=Nc2ccc(C)cc2N(Cc2ccccc2)C(=O)C1	x	6.2	2	0.6	i	7	6	21	-1	-9
CNC(=O)COC(=O)c1cc2c(s1)CCCC2	3	-5.2	-3	-3.4	i	5	2	-0.4	1	4
CCOc1ccc(NC(=O)CN(C)C(=O)c2ccc(-c3ccc(C(C)=O)cc3)o2)cc1OCC	7	-6.3	9	1.2	i	0	8	3.7	1	-16
COc1ccc(NC(=O)C2CCCN2S(=O)(=O)c2cccc3cccnc23)c(OC)c1 (stereo not drawn)	-4	2.6	19	10	i	4	-3	8.6	-14	37
Cn1c(CC(=O)NNC(=O)c2ccc(F)cc2Cl)nc2ccccc21	1	x	x	-2.0	i	10	11	2.4	x	-3
Cc1cccc(C)c1-n1c(C)cc(/C=N/NC(=O)CSc2ncccn2)c1C	-10	2.0	-2	15	i	0	5	0.7	-10	-9
CCOC(=O)C1Cc2ccccc2C(=O)O1 (stereo not drawn)	-6	1.9	-5	x	x	x	x	x	-18	1
Cc1ccc(OCCC(=O)OCC(=O)NC(=O)NC2CCCC2)cc1	-15	-1.0	1	-0.1	i	3	-8	0.4	-10	12
CCCCCCCC1(C)NC(=O)NC1=O (stereo not drawn)	-2	-4.6	-3	5.6	i	5	9	1.5	-11	-4
COc1ccccc1CNC(=O)c1cc(-c2cccnc2)nc2ccccc12	8	-0.9	12	-0.2	i	-2	-6	-1.6	21	0
O=C(c1cccnc1Nc1ccccc1F)N1CCOCC1	-3	2.0	-36	0.0	i	7	8	0.3	-18	-3
OCC1(Cc2ccccc2)CCCN(Cc2ccn[nH]2)C1 (stereo not drawn)	1	0.6	1	0.5	i	13	14	-2.7	-15	-2
CCOC(=O)C1CCCN(C(=O)c2csc(-c3ccc4c(c3)CCO4)n2)C1 (stereo not drawn)	-2	3.1	-8	1.9	i	-41*	14*	-8.4*	13	1
C[C@H](CO)N1C[C@H](C)[C@H](CN(C)C(=O)Nc2ccc(F)cc2)Oc2ccc(NC(=O)NC3CCCCC3)cc2CC1=O	-1	x	x	-0.3&2.6	i	2&3	3&-1	-0.3&-3.8	x	-2
Cc1cccc(C(=O)NCC(=O)NCC(c2ccco2)N2CCCCC2)c1 (stereo not drawn)	-6	-2.9	-1	0.4	i	0	3	-0.6	-9	2
COc1cc(/C=C(\C#N)C(=O)NCC2CCCO2)ccc1O (stereo not drawn)	0	5.2	4	x	x	x	x	x	-17	99*
c1nc(N2CCOCC2)c2c3c(sc2n1)CCCC3	-7	-1.7	10	x	x	-21	-28	-4.5	-1	-20
COc1ccc(C2c3c(noc3C)CC(C)(O)C2C(C)=O)cc1 (stereo not drawn)	-5	4.4	-6	-13	i	12	-1	0.8	-19	-7
O=C(NCCc1ccc(Cl)cc1)c1ccc2nccnc2c1	-1	-0.1	8	-1.0	i	-2	6	-1.5	-13	-1
COc1cc(/C=C2/C(=N)N3C(=NC2=O)SN=C3S(=O)(=O)C(C)C)ccc1OS(=O)(=O)c1ccccc1	-12	3.3	26	x	x	x	x	x	-14	73
COC(=O)Cn1c2ccccc2c2nc(=O)cc(C)n21	x	3.9	-10	-0.1	i	9	-4	1.3	-4	0
COc1cccc(-c2nn3c(-c4cc(C)[nH]n4)nnc3s2)c1	x	2.0	10	x	x	x	x	x	-7	1
COc1cccc(C2/C(=C(/O)c3ccc(F)cc3)C(=O)C(=O)N2CCN(C)C)c1 (stereo not drawn)	x	-1.7	5	x	x	x	x	x	-6	-3
O=C1CC2(CCCC2)Oc2ccc(F)cc21	0	3.7	-11	-2.2	i	5	-9	-2.4	-8	-1
O=C(NCc1ccc(Cl)cc1)c1ccc(COCC(F)(F)F)o1	0	1.4	-5	x	x	x	x	x	2	9
CC(CNC(=O)Cn1ccc(NC(=O)OCc2ccccc2)nc1=O)c1ccccc1 (stereo not drawn)	-10	x	x	2.7	i	2	4	3.9	x	-2
CCOc1cc(/C=C(/C#N)c2nc3ccccc3[nH]2)ccc1Oc1ccc([N+](=O)[O-])cn1	24	4.0	16	-2.8	i	13	-2	6.3	36	-2
CC(C)CCC1(CCNC(C)c2cccs2)CCOC(C)(C)C1 (stereo not drawn)	x	1.8	14	-3.8	i	6	-10	6.1	8	-3
Cc1ccc(C(=O)Nc2ccc(S(=O)(=O)N3CCOCC3)cc2)cc1Br	5	3.9	24	2.6	i	-11	-12	-1.1	18	-4
CN(C)c1ccc(/C=C2\SC(N3CCCCC3)=NC2=O)cc1	x	-10.0	-8	4.4	i	3	5	-1.2	19	99*
COc1cc(CNC(C)(C)CO)ccc1OCC(=O)Nc1ccc(Br)cc1	-3	-0.5	u	x	x	x	x	x	37	17
CCN(CC(=O)NCc1ccc(Cl)cc1)C(=O)c1cc(S(=O)(=O)N2CCOCC2)ccc1C	1	x	x	1.5	i	0	3	-0.7	x	-11
CC(=O)c1sc2nc(SCC(=O)NCCc3ccccc3)[nH]c(=O)c2c1C	x	0.0	-1	-1.7	i	2	4	0.4	-9	30
COc1cccc(C(C(=O)NC2CCCCC2)N(C(=O)c2csnn2)C2CC2)c1 (stereo not drawn)	0	0.9	12	3.1	i	3	12	-0.4	5	-2
Cc1cc2nnc(SCC(=O)N3CCN(c4ccccc4)CC3)n2c(N)n1	4	1.3	2	x	x	x	x	x	-9	98*
CN1C(=O)NC2C1N(S(C)(=O)=O)CCN2S(C)(=O)=O (stereo not drawn)	-1	1.1	-4	x	x	x	x	x	-17	-4
CCOc1cc(C2C(C(=O)c3ccc(C)cc3)=C(C(=O)OC)Nc3nnnn32)ccc1O (stereo not drawn)	1	-2.3	-2	x	x	x	x	x	-6	7
CCCN(Cc1ccccc1)C(=S)Nc1ccc(SC(F)F)cc1	x	4.7	-23	-1.6	i	-31	-31	-7.9	-9	x
COc1ccc(S(=O)(=O)N(C)C2(C)CCS(=O)(=O)C2)cc1OC (stereo not drawn)	x	-4.3	2	1.2	i	4	12	-1.9	2	-4
Fc1ccc(CNCC2CCCO2)cc1 (stereo not drawn)	x	2.2	6	0.0	i	3	2	-2.7	-8	x
COc1ccc(CN(C)CC(=O)Nc2cccc(S(=O)(=O)N3CCCC3)c2)cc1F	-2	x	x	-0.6	i	-12	-9	2.3	x	-17
C=CCC(=O)NC(C)c1cnn(-c2ccccc2C)c1C (stereo not drawn)	-2	2.3	-5	-0.2	i	6	0	-3.5	-1	7
CCC(C)[C@H](NC(=O)NCCCc1ccccc1)C(=O)OC (stereo partly drawn)	-4	-1.0	-46	4.3	i	-1	-5	-4.0	-26	-9
O=C(C1CCCC1)N1CCCC(Nc2ccccc2)C1 (stereo not drawn)	1	1.9	-11	-1.2	i	10	-8	1.8	11	99*
Cc1ccn2cc(CC(=O)O)nc2c1	-2	-12	3	-0.9	i	8	13	5.3	-5	-5
CC(Nc1nc(N2CCNCC2)nc2ccccc12)c1ccccc1 (stereo not drawn)	5	8.9	-14	8.7	i	-35	-41	16	18	-2
CC12CCC(c3nnc(SCC(=O)Nc4cccc5ccccc45)nc31)C2(C)C (stereo not drawn)	-7	-6.7	32	x	x	x	x	x	-6	71
Nc1cc(N)nc(SCc2cc(=O)oc3cc4c(cc23)CCC4)n1	0	31*	11	x	x	x	x	x	5	1

Quoted at random: 3 compounds from above, in no set order.
SMILES	Beta cell apopt	RanGTP-Impb inh	Calb FLC	AF4-AF9 inh	FGF22 binding	rRNA inh HTS	rRNA inh HTS OD600	rRNA inh HTS RFP	T cruzi repl	ALR inh
CCN(CC(=O)NCc1ccc(Cl)cc1)C(=O)c1cc(S(=O)(=O)N2CCOCC2)ccc1C	1	x	x	1.5	i	0	3	-0.7	x	-11
CCOC(=O)C1Cc2ccccc2C(=O)O1 (stereo not drawn)	-6	1.9	-5	x	x	x	x	x	-18	1
CC(C)CCC1(CCNC(C)c2cccs2)CCOC(C)(C)C1 (stereo not drawn)	x	1.8	14	-3.8	i	6	-10	6.1	8	-3

Additional structures:
SMILES	Beta cell apopt	RanGTP-Impb inh	Calb FLC	AF4-AF9 inh	FGF22 binding	rRNA inh HTS	rRNA inh HTS OD600	rRNA inh HTS RFP	T cruzi repl	ALR inh
O=C(Nc1ccccc1Cl)c1cccc(NC(=O)C2C3CC4OC(=O)C2C4C3)c1 (stereo not drawn)	-3	2.1	-31	x	x	x	x	x	-6	-18
CN(C)S(=O)(=O)N1CCCC(C(=O)c2ccc(-c3ccccc3)cc2)C1 (stereo not drawn)	8	-5.1	-3	0.8	i	3	3	-5.3	2	-9
CC(=O)c1cccc(NC(=O)C(OC(=O)c2ccccc2NS(=O)(=O)c2cccs2)c2ccccc2)c1 (stereo not drawn)	14	6.0	13	x	x	x	x	x	6	-22
COc1ccc(-c2cc(C(=O)Nc3cccnc3)c3ccccc3n2)cc1OC	0	-4.1	5	-2.1	i	-12	-25	-1.3	3	-4
CC(C)(C)N1CC(c2nc3ccccc3n2Cc2ccccc2)CC1=O (stereo not drawn)	8	-2.1	23	5.3	i	-9	-11	-0.9	1	-3

Compound activity as filed in PubChem.
